# Screening data (PubChem)
# YopH inh: inhibitors of Yersinia enterocolitica YopH tyrosine phosphatase. inhibition, %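 (about 10 µM by stock and volumes)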. AID 898. 0.16% of 140,000 active. fluorescence Ex485/Em525;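 active means inhibition of 50% or more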;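 further: controls were vehicle for no effect and minimum signal wells for full effect; inactives centre near -20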
# Arbovirus anti: arbovirus infection inhibition. AID 1251. inhibition, % at 10 µM. arbovirus infection cell-based antiviral screen. 0.37% of 200,000 active;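 active means inhibition from about 30%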;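 further: bluetongue infection of BSR cells; cell survival read as ATP light after 72 h; 0% = infected wells without compound and 100% = uninfected wells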
# Mtb bLac sens: beta-lactam sensitization of Mtb H37Rv | M. tuberculosis H37Rv growth with meropenem, percent inhibition; hits of this screen are not shown here | inhibition, % at 25 µM | 0.27% of 330,000 active;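 active means about 74% or more and at least 40 points above the plate without the antibiotic, then above 30% in a dose series; inconclusive means first-round hits that could not be retested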;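 further: growth measured after seven days incubation then overnight dye step; 0% = bacteria only wells and 100% = bacteria with antibiotic; twin plates without the antibiotic show which effects depend on it; some results filed as inactive read as strong as hits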
# Mtb growth: M. tuberculosis H37Rv growth inhibitors, H37Rv strain (AID 1626); M. tuberculosis H37Rv growth inhibition; higher % means a stronger effect; one-dose inhibition, % at 10 µM; IC50 in µM for titrated hits; 0.95% of 220,000 active;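 active means confirmed in a dose series; inconclusive means inhibition above 80% but not taken into the dose series; inactive means below 80% or under 30% at every dose of the series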;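 further: bacteria incubated seven days before Alamar blue readout; 0% = bacteria only wells and 100% = bacteria with antibiotic wells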
# RecA intein inh: blocks M. tuberculosis RecA intein splicing | P9WHJ3 | cell-free RecA intein splicing, fluorescence | inhibition, %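 (about 9 µM by stock and volumes)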 | 0.75% of 290,000 active | AID 2221; in the data active means inhibition above about 30%; inconclusive means no clear call, values can overlap the other calls;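 further: 0% = vehicle wells and 100% = reference inhibitor control wells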
# Target sequence (P9WHJ3 whole entry, looked up): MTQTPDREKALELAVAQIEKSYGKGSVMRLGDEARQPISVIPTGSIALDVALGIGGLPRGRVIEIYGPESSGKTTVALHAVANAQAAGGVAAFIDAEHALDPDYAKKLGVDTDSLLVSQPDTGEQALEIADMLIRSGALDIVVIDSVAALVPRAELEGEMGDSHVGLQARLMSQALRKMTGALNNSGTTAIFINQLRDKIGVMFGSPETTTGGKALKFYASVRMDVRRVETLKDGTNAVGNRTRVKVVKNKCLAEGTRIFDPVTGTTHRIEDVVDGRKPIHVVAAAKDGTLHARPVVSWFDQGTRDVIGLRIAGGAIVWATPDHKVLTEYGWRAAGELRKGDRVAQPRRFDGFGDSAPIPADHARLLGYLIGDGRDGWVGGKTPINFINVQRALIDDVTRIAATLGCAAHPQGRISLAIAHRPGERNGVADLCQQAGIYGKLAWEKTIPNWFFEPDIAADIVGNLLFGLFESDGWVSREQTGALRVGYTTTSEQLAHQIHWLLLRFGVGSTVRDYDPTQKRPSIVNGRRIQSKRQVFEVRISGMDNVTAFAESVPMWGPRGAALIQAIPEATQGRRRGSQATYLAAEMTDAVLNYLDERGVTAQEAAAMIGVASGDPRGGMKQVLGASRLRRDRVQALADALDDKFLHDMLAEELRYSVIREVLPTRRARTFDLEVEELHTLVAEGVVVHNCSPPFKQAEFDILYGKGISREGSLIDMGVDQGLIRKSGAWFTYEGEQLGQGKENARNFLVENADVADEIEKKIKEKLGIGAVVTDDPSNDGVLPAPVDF
# Numbers without * were called inactive; ? = inconclusive; / = no result given. Some of the compounds tested; the hit share may differ from the screen's.
# Preview, 2 compounds:
molecule	YopH inh	Arbovirus anti	Mtb bLac sens	Mtb growth	RecA intein inh
CCOC(=O)C1(Cc2cccc(OC)c2)CCN(C(C)CC(C)(C)O)CC1 (stereo unspecified)	/	-12	1	-3%	0.2
CCOCCCNc1ncnc2c1[nH]c1ccccc12	-11	8	3	3%	3.7

# This part in full (from the top)
molecule	YopH inh	Arbovirus anti	Mtb bLac sens	Mtb growth	RecA intein inh
CCOC(=O)C1(Cc2cccc(OC)c2)CCN(C(C)CC(C)(C)O)CC1 (stereo unspecified)	/	-12	1	-3%	0.2
CCOCCCNc1ncnc2c1[nH]c1ccccc12	-11	8	3	3%	3.7
CC(C)N1CSC(=S)N(Cc2ccccc2)C1	/	-9	49	8%	4.9
Cc1ccc(NS(=O)(=O)c2ccc3c(c2)NC(=O)C(C)C(=O)N3)c(Br)c1 (stereo unspecified)	/	/	-2	/	-1.2
COc1ccc(C)cc1N(C(=O)COc1cccc(F)c1)c1nc2ccccc2s1	-13	15	16	6%	11
OCc1ccc(-c2nn(Cc3ccccc3)c3ccccc23)o1	/	/	6	/	7.1
COc1ccc(-c2csc(NC(=O)c3cccs3)c2C(=O)O)cc1OC	/	24	-6	-3%	0.1
CN(Cc1ccccc1)c1nc(N)c([N+](=O)[O-])c(NCc2ccccc2)n1	0	36*	8	11%	0.2
CN(C(=O)CSc1nnc(-c2ccccc2F)o1)c1ccccc1	/	/	3	/	-3.8
CCC1CCC(c2nnc(-c3ccc([N+](=O)[O-])cc3)o2)CC1 (stereo unspecified)	-17	5	20	48%	0.1
CCC(=O)NCCNc1nc2cc(C)c(C)cc2cc1C#N	0	-5	-3	-2%	1.8
CCn1c(-c2cccnc2)n[nH]c1=S	-42	-3	11	1%	-2.5
NC(=O)COC(=O)C(Cc1ccccc1)NS(=O)(=O)c1ccccc1F (stereo unspecified)	/	/	-1	-6%	1.9
O=C(Nc1ccc(Oc2ccc(Cl)cc2)c(Cl)c1)c1cc(I)cc(I)c1O	/	/	15	/	-1.5
CCn1cc(/C=N\NC(=O)c2c[nH]c3ccccc23)c(C)n1	-15	-4	-2	3%	-5.9
O=C(c1cccc(C(F)(F)F)c1)C1CCCN(C(=O)CCc2cnccn2)C1 (stereo unspecified)	/	7	1	-4%	-0.9
Cc1c(C(=O)Nc2ccc(Cl)cc2)c2ccccn2c1C(=O)c1ccccc1	-21	5	2	-2%	-18
Cc1ccccc1N(CC(=O)N1CCOCC1)S(C)(=O)=O	/	-4	-5	-11%	2.3
CC(C)N(Cc1ccccc1)C(=O)c1ccc2c(c1)OCO2	/	/	?	/	2.8
CCn1c(=O)c2ccccc2n2c(SCC(=O)N3CCCc4ccccc43)nnc12	-42	3	?	-4%	-0.6
CCCC(=O)NC(c1ccccc1OC)c1ccc2cccnc2c1O (stereo unspecified)	/	-29	-1	2%	-5.2
Cc1cc(=O)oc2c(CN(CC(C)C)CC(C)C)c(O)ccc12	-31	7	-2	-2%	-25
Cc1cc(S(=O)(=O)NCCc2ccccc2)c(C)s1	-50	2	10	-3%	-0.3
COc1cccc(NC(=O)COC(=O)CCS(=O)(=O)c2ccc(C)cc2)c1	/	4	4	5%	0.5
Cn1c(SCC(=O)NCc2ccc3c(c2)OCO3)nnc1-c1c[nH]c2ccccc12	-9	-4	-4	4%	3.8
O=C(NCc1cccnc1)c1cn(CCc2ccccc2)nn1	7	5	-7	-2%	/
O=C1CCc2cc(S(=O)(=O)N3CCC(C(=O)NCc4ccccn4)CC3)ccc2N1	-31	2	-5	/	1.7
CC(=O)Nc1ccc(-c2csc(-c3cccnc3)n2)cc1	/	/	-9	/	-0.6
COc1ccc(-c2cc(=O)oc3cc(OC(C)C(=O)Nc4ccc(CN5CCOCC5)cc4)ccc23)cc1 (stereo unspecified)	/	/	98	/	2.6
COc1ccc(-c2nc(C)sc2CC(=O)O)cc1OC	/	6	-6	3%	-0.4
Nc1nc(NC(=O)C(Cl)(Cl)Cl)nn1-c1ccccc1	-13	-1	3	6%	-0.5
CC1(C)CC2CC(C)(CN2S(=O)(=O)c2cccc(C(=O)OCC(N)=O)c2)C1 (stereo unspecified)	/	/	-10	/	-2.7
O=C(NCCOCCOCCNC(=O)c1ccccc1)c1ccccc1	/	4	-2	-7%	-0.7
CC1(C)CC(=O)C2=C(C1)OC1=C(C2)C(=O)CC(C)(C)C1	-23	6	1	-5%	0.2
O=C(NCc1ccccc1Cl)c1csc2c1CCCCC2	-26	-8	5	10%	-0.3
CC1CN(CC(=O)Nc2ccc(Br)cn2)CC(C)O1 (stereo unspecified)	/	/	0	/	-0.1
O=C(c1cc(Sc2ccc(Cl)cc2)nc2ccccc12)N1CCN(c2ccccn2)CC1	/	-3	73	8%	/
CCOC(=O)[C@@H]1C(c2c(OC)cc(OC)cc2OC)=NO[C@@H]1C(=O)OCC	-16	-1	-6	-3%	-5.1
COC(=O)COc1ccc(S(=O)(=O)Nc2cc([N+](=O)[O-])ccc2C)cc1	/	-3	5	3%	0.5
Cn1c(N/N=C/c2cccs2)nc2c1c(=O)n(Cc1ccccc1)c(=O)n2C	-34	7	50	18%	0.6
CC(C)N1C/C(=C/c2ccsc2)C(=O)/C(=C/c2ccsc2)C1	-21	-34	86	6%	-2.7
Cc1ccc(C(=O)OCCN2CCN(c3ncc(C(F)(F)F)cc3Cl)CC2)cc1	-11	9	90	0%	8.0
Cc1ccc(NC(=O)CNC(=O)N2CC(=O)Nc3ccccc32)cc1F	/	/	-12	/	0.2
Cc1cc(C)c(C#N)c(SCc2ccccc2C(=O)O)n1	-18	8	-1	-8%	/
CN(CC(=O)Nc1cccc2c1CCCC2)S(=O)(=O)c1ccc(Cl)cc1	-2	-1	-6	5%	-2.3

# Shown with values under each structure: five of the compounds above.
# Fields: YopH inh, Arbovirus anti, Mtb bLac sens, Mtb growth, RecA intein inh
- CC1CN(CC(=O)Nc2ccc(Br)cn2)CC(C)O1 (stereo unspecified)
→ /, /, 0, /, -0.1
- O=C(c1cc(Sc2ccc(Cl)cc2)nc2ccccc12)N1CCN(c2ccccn2)CC1
→ /, -3, 73, 8%, /
- CCOC(=O)[C@@H]1C(c2c(OC)cc(OC)cc2OC)=NO[C@@H]1C(=O)OCC
→ -16, -1, -6, -3%, -5.1
- COC(=O)COc1ccc(S(=O)(=O)Nc2cc([N+](=O)[O-])ccc2C)cc1
→ /, -3, 5, 3%, 0.5
- Cn1c(N/N=C/c2cccs2)nc2c1c(=O)n(Cc1ccccc1)c(=O)n2C
→ -34, 7, 50, 18%, 0.6

# Next section:
molecule	YopH inh	Arbovirus anti	Mtb bLac sens	Mtb growth	RecA intein inh
COc1cc(NC(=S)NNC(=O)C(C)(C)O)cc(OC)c1	/	0	-10	-4%	-0.3
O=C(Nc1ccccc1Cl)c1ccc(S(=O)(=O)NCC2CCCO2)cc1 (stereo unspecified)	/	/	-6	/	-0.7
O=C(CN1C(=O)COc2ccc(Cl)cc21)N1CCc2ccccc21	-11	-10	?	-3%	2.3
Clc1ccc(SCCn2ccnc2)cc1	-23	0	-9	8%	-2.7
CCN(C(=O)C1CCN(S(=O)(=O)c2ccc3c(c2)oc(=O)n3C)CC1)c1cccc(C)c1	-25	-3	-1	2%	-0.6
CN(C)c1cccc(C(=O)OCc2cc(=O)oc3cc(O)ccc23)c1	10	5	-3	1%	-22
O=C(Nc1ccc(OC(F)(F)F)cc1)Oc1ccccc1N1CCOCC1	/	/	-5	-3%	-2.4
CCOC(=O)C(CC)Sc1nc2c(c(=O)[nH]c(=O)n2C)n1C/C=C(/C)Cl (stereo unspecified)	-24	4	-7	1%	-2.4
Cc1c(-c2ccccc2)nc2ccccc2c1C(=O)O	-15	7	-18	-5%	3.4
Cn1c(SCc2c(Cl)cccc2Cl)nnc1-c1ccc2nonc2c1	/	/	6	3%	-3.7
COC(=O)c1ccc(C(C(=O)NC2CCCCC2)N(Cc2ccccc2)C(=O)Cc2cccs2)cc1 (stereo unspecified)	-22	3	0	-5%	-1.9
CCCCC(C(=O)OCC)C(N)Cc1ccc(F)cc1 (stereo unspecified)	/	2	-3	-1%	1.3
CCN=C1S/C(=C\c2ccc(OCC)c(OC)c2)C(=O)N1CC	-11	-21	92	22%	/
O=S(=O)(Nc1ccc(Cl)nn1)c1ccccc1	/	2	-6	-5%	-1.7
CCOC(=O)c1[nH]c(C)c(C(=O)N2CCN(c3ccccc3)CC2)c1C	-2	-3	-2	0%	2.3
CN(C)CCn1c2c(c(SCC(=O)Nc3ccccc3C(F)(F)F)nc1=O)CCCC2	/	/	-6	/	-2.9
Cn1c(N)c(C(=O)COC(=O)CCCc2nc3ccccc3s2)c(=O)n(C)c1=O	/	18	-3	3%	0.7
COc1cc(OC)c2cc[nH]c2c1	-18	2	-14	>100µM*	-4.1
Cc1cnc(C)c(N2CCN(Cc3nc(-c4cccc(F)c4F)oc3C)CC2)n1	/	5	-2	12%	0.5
CCOc1ccc(N(CC(=O)NCCSCc2ccc(C)cc2)S(C)(=O)=O)cc1	/	/	-29	/	0.6
O=C(COc1ccccc1)N1CCN(c2ccc([N+](=O)[O-])c(N3CCCCC3)c2)CC1	-38	12	8	5%	/
COc1cccc2c(C)cc(N3CCCCCC3)nc12	/	/	-1	/	1.7
CCC/S(C)=N/S(=O)(=O)c1ccc(C)cc1 (stereo unspecified)	-12	2	2	12%	3.4
COc1cccc(/C=N/NC(=O)C(C)n2nnc3ccccc32)c1 (stereo unspecified)	-18	0	3	-6%	-0.4
CN(C(=O)n1cnc2ccccc21)c1ccccc1	-24	7	2	3%	-0.1
CCc1ccc(OCC(=O)Nc2nnc(-c3ccco3)s2)cc1	/	/	7	/	-2.6
O=C(O)CN1C(=O)NC2(CCc3ccccc32)C1=O (stereo unspecified)	/	/	3	/	-2.7
CCOC(=O)c1[nH]c(C)c(C(=O)N2CCN(c3ccc(F)cc3)CC2)c1C	-28	-6	-20	-1%	3.3
CCN(CC)S(=O)(=O)c1ccc(S(=O)(=O)N2CCCC2)cc1	/	17	-1	-2%	0.4
COc1cc(NC(=O)c2cc3c(CO)cnc(C)c3oc2=Nc2cccc(C(N)=O)c2)cc(OC)c1	/	/	1	/	0.9
COc1ccccc1NC(=S)NC1CC2CCC1C2 (stereo unspecified)	/	/	8	-12%	2.2
Cc1cccc(-c2nc3ccccc3c(=O)n2NC(=S)N(C)C)c1	-6	1	-8	-7%	1.9
CN1C[C@H](CO)C=C2c3cccc4[nH]cc(c34)C[C@H]21	/	0	-10	/	7.6
O=S(=O)(c1ccccc1)c1nc(-c2cccs2)oc1NCC1CCCO1 (stereo unspecified)	-39	4	-5	-1%	6.4
Cc1c(C)n(Cc2ccccc2)c2ncnc(NCCCO)c12	/	/	-4	/	0.7
CC(Sc1nnc2ccccn12)C(=O)Nc1ncc(Cl)cc1Cl (stereo unspecified)	-9	5	45	/	1.1
CC(=O)c1cccc(NC(=O)c2ccc(Br)o2)c1	-35	-3	-2	5%	1.9
CC(C)(C)c1ccc(CSc2cnn(C(C)(C)C)c(=O)c2Cl)cc1	/	/	4	/	0.6
COc1cc(OC)c(C(=O)Nc2cccc(C(C)=O)c2)cc1OC	-9	-2	-1	4%	0.8
O=C1N=c2ccccc2=C1c1c(O)[nH]c2c(C(F)(F)F)cccc12	/	/	8	/	-1.3
CS(=O)(=O)N(CC(=O)N1CCCC1)c1ccccc1F	/	/	-1	/	-2.3
CC(C)COP(=O)(OCC(C)C)C(O)c1cccnc1 (stereo unspecified)	-24	-1	-1	3%	-0.5
Cc1cc(Nc2ccccc2)n(CCC#N)n1	-26	6	-12	8%	2.2
COc1cc(C(=O)N(Cc2cccnc2)Cc2cc3cc4c(cc3[nH]c2=O)OCCO4)cc(OC)c1OC	-25	8	-1	-6%	-12
CCOC(=O)C1(CCOc2ccccc2)CCN(Cc2cccc(O)c2)CC1	/	/	-4	/	-0.2
O=C1Nc2ccc(Br)cc2C(c2ccccc2)=NC1O (stereo unspecified)	/	/	-2	/	0.7
COc1cc(OC)c(OC)cc1CN1CCN(Cc2cccc(F)c2)CC1	/	/	-5	/	-1.0
CC(=O)c1cccc(NS(=O)(=O)N(C)C)c1	-31	3	-13	-7%	2.3
CCOCCCNC(=O)Cc1ccc(Br)cc1	-37	4	0	6%	0.4
N#CC(c1ccc(O)cc1)N1CCCCC1 (stereo unspecified)	-11	-2	-14	0%	-4.7
O=C(NC1CCCCC1)Sc1ccc(Cl)cc1	-28	-17	15	46%	-2.5
Cc1nnc(SCC(=O)N2c3ccccc3Sc3ccccc32)n1N	32	1	-1	-5%	-0.7
